FEN1 inh: qHTS Assay for the Inhibitors of Human Flap endonuclease 1 (FEN1); P39748; Recombinant FEN1 flap cleavage, fluorescence, 15 min; Potency, µM (top dose mostly 114 µM), for the others: at the top dose activity change, negative = inhibition, most hits filed as inhibitors; 0.35% of 390,000 active; note: nearly all actives have a fitted effect of over 65% in size
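FEN1 at 10 nM preincubated with compounds 15 min at room temperature, then flap DNA substrate added at 50 nM final. Signal read at 0 and 15 min; concentration-response fitted with four-parameter Hill equation.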
KAT2A inh: qHTS Assay for Inhibitors of GCN5L2. 0.21% of 390,000 active. GCN5L2 HAT assay, ThioGlo1 CoA-SH fluorescence. Potency, µM (titrated, usually from 58.9 µM), inactives show at the highest dose activity change, negative = inhibition, usual class: inhibitors
Target sequence (Q92830 whole entry, looked up): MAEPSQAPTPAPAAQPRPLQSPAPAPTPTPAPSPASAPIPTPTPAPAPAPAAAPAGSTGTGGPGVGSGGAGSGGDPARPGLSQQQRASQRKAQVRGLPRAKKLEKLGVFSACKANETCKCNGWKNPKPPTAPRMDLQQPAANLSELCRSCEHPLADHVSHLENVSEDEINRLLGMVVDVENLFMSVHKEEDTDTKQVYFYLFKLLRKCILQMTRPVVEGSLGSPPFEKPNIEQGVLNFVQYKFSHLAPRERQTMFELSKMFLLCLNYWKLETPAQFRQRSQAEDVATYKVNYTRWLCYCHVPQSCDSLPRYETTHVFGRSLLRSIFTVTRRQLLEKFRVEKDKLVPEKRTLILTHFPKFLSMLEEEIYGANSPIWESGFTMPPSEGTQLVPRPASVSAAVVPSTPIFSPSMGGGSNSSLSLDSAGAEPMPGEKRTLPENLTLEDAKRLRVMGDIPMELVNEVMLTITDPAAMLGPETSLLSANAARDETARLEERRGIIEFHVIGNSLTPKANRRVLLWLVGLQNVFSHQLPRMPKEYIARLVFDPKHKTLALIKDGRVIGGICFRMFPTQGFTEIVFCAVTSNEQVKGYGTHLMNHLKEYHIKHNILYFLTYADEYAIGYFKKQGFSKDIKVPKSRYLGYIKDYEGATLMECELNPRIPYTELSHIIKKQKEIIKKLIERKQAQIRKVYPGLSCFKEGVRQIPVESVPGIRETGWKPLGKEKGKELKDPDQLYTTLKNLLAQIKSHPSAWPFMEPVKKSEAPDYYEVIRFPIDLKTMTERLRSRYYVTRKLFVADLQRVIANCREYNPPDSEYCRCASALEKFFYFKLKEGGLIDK
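GCN5L2 (20 nM) in 50mM HEPES pH 7.5, 0.1mM EDTA, 0.01% Tween-20 preincubated 15 min with compounds at room temperature. Reaction started with H3(1-25) 75uM, acetyl-CoA 70uM, ThioGlo1 50uM; CoA-thiol fluorescence (Ex340/Em540) read at 0 and 20 min.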
* marks the source's active call; other numbers are inactive results; ? = inconclusive; . = not tested or not shown; & = joins results of further samples; [ ] = remark or other dose. Calls come from the whole dose curve; as a rule, active = well fitted curve in the direction sought with a large enough effect; inconclusive = small, poorly fitted or top-dose-only effect, or another doubt; inactive = no such curve, though single readings can be large; an effect the other way counts as inactive or inconclusive. % is set by controls: 0 for no effect and ±100 for the full control effect; potency is the fitted concentration of half-maximal effect.

1) O=[N+]([O-])/C=C/c1cn(Cc2ccc(Cl)cc2)c2ccccc12
2) CCOC(=O)Cn1c(=O)oc2cc(S(=O)(=O)N3CCN(c4ccccc4F)CC3)ccc21
3) Cc1c(C)n(Cc2ccccc2)c2ccc(C(=O)N3CCN(c4ccccc4F)CC3)cc12
4) Cc1ccc(-c2cc(C(=O)N3CCC(C)CC3)c3ccccc3n2)cc1
5) O=C(NN1CCCCC1)c1ccccc1
6) CCn1c(-c2cc(-c3ccc(C)cc3)nc3ccccc23)n[nH]c1=S
7) COc1ccc(-n2nc3c(c2NC(=O)c2ccco2)CS(=O)(=O)C3)cc1
8) Cc1cc(C)c(S(=O)(=O)Nn2cnnc2)c(C)c1
assay / entry | 1 | 2 | 3 | 4 | 5 | 6 | 7 | 8
FEN1 inh | 15% | 16% | 9% | -4% | -1% | -4% | -5% | -7%
KAT2A inh | -4% | -8% | -29% | -9% | 1% | -11% | -5% | -12%

9) COC(=O)c1sccc1S(=O)(=O)N(CC(=O)NCc1ccccc1)c1ccc(C)c(C)c1
10) COc1ccc(C(=O)CSc2[nH]c(=O)cc(C(F)(F)F)c2C#N)cc1
11) CC(C)c1nc(NCC2CCCO2)c(C#N)c2c1COC(C)(C)C2 (configuration not stated)
12) Cc1nc(=O)c(-c2ccccc2)c(C)n1-c1ccc(S(N)(=O)=O)cc1
13) Cc1cc2oc(C(=O)Nc3sc4c(c3C(=O)NCc3ccco3)CCC4)cc(=O)c2cc1C
14) COc1ccc(NS(=O)(=O)c2cccc(C(=O)NCc3ccccc3CN3CCCC3)c2)cc1
15) CCOC(=O)C1(Cc2ccccc2C(F)(F)F)CCN(C(C)CCn2cccn2)CC1 (configuration not stated)
16) CN(C)/C=C1\C(=O)Nc2ccccc21
assay / entry | 9 | 10 | 11 | 12 | 13 | 14 | 15 | 16
FEN1 inh | -9% | -4% | 2% | -7% | -17% | 1% | 2% | 0%
KAT2A inh | 31%[activator] | -3% | -1% | -3% | -8% | 0% | -6% | -1%

17) Cc1cc(S(=O)(=O)N2CCCCC2CCNC(=O)C(=O)NCc2cccnc2)ccc1F (configuration not stated)
18) COc1ccc(CCNc2ccc(N3C(=O)CC(C)C3=O)cc2[N+](=O)[O-])cc1OC (configuration not stated)
19) O=S(=O)(Nc1cccc2ncccc12)c1cccs1
20) O=C(NCc1ccccc1Cl)c1ccc2c(c1)N(Cc1ccccc1)C(=O)c1ccccc1S2
21) O=C(NC1CC1)c1cccc(Br)c1
22) NNC(=S)Nc1ccc(Cl)cc1
23) Cc1cccc(C)c1NC(=S)N(Cc1cccnc1)Cc1ccccc1Cl
24) COCCCNC(=O)c1nn(-c2ccc(C)cc2)c(=O)n(C)c1=O
assay / entry | 17 | 18 | 19 | 20 | 21 | 22 | 23 | 24
FEN1 inh | -1% | 5% | 0% | 3% | -4% | -1% | -5% | 25%
KAT2A inh | -7% | -6% | -20% | -5% | -2% | 2% | -9% | -7%

Reprinted from the part before: 2 compounds, followed by the next part.
23) Cc1cccc(C)c1NC(=S)N(Cc1cccnc1)Cc1ccccc1Cl
24) COCCCNC(=O)c1nn(-c2ccc(C)cc2)c(=O)n(C)c1=O
25) CCOC(=O)C1=C[C@@]2(CC)CCCN3CCc4c(n1c1ccccc41)[C@H]32
26) NC(=O)[C@H]1CC2(CC(c3cccc(NC(=O)[C@H]4CCC(=O)N4)c3)=NO2)CN1C(=O)CC(c1ccccc1)c1ccccc1 (some centres not stated)
27) CC(C)(C)C(=O)Nc1nc2cc3c(cc2s1)OCO3
28) O=C(Cc1ccccc1)Nc1ccc(N2CCOCC2)cc1N1CCOCC1
29) COC(=O)NC(=S)N1CCOCC1
30) O=C(Nc1ccccc1F)c1ccc(-c2cccc([N+](=O)[O-])c2)o1
31) COc1c2ccoc2nc2c(OC)c(OCC(OC(C)=O)C(C)(C)O)ccc12 (configuration not stated)
32) O=C(Nc1nccs1)c1ccc(S(=O)(=O)NCc2cccs2)cc1
assay / entry | 23 | 24 | 25 | 26 | 27 | 28 | 29 | 30 | 31 | 32
FEN1 inh | -5% | 25% | . | -12% | 11% | 0% | -12% | 20% | -4% | 9%
KAT2A inh | -9% | -7% | 12%[21.4 µM] | 40%[activator] | -6% | -3% | 2% | -19% | -3% | -10%

33) O=c1oc2ccccc2c(O)c1Cc1cc(Cl)c2cccnc2c1O
34) N#CCSc1ccccc1NC(=O)CN1C(=O)C2CC=CCC2C1=O (configuration not stated)
35) Cc1ccc(C)c(NC(=O)c2cc3c([nH]c4ccccc43)c(C)n2)c1
36) CCOCCCNC(=O)C(NC(=O)c1ccc2c(c1)OCO2)c1ccc(Cl)cc1 (configuration not stated)
37) CCCC(=O)n1nc(-c2ccc(Cl)cc2)nc1SC
38) COc1cccc(CN(C)C(=O)c2ccccc2SCC(=O)N2CCCC2)c1
39) Cc1cccnc1
40) CCc1ccc(-n2nc3cc(C)c(NC(=O)c4cc(Cl)ccc4OC)cc3n2)cc1
assay / entry | 33 | 34 | 35 | 36 | 37 | 38 | 39 | 40
FEN1 inh | -12% | -10% | -4% | -1% | -4% | 3% | 0% | 0%
KAT2A inh | -9% | -5% | 0% | -6% | -16% | -7% | 1% | 1%

41) C/C(=N\NC(=O)CNc1ccccc1Cl)C(C)(C)C
42) COc1cc(C(C(=O)NC2CCCCC2)N(C(=O)c2cnccn2)c2ccccc2)cc(OC)c1OC (configuration not stated)
43) CCCCn1c(N)c(N(CC)C(=O)C2CCN(C(=O)c3ccccc3C)CC2)c(=O)[nH]c1=O
44) CCOc1ccc(CNC(=O)CCC(=O)N2Cc3ccccc3Oc3ncccc32)cc1
45) COc1ccc(C(=O)Nc2ccccc2N2CCCC2)cc1S(=O)(=O)N1CCOCC1
46) COc1ccc(-c2noc(CSc3nc(N)c(-c4ccccc4)c(=O)[nH]3)n2)cc1OC
47) Cc1ccc(C2CC(c3ccccc3)n3ncnc3N2)cc1 (configuration not stated)
48) Cc1nc2ccccc2c(=O)n1-c1ccc(NS(=O)(=O)c2ccc(F)cc2)cc1
assay / entry | 41 | 42 | 43 | 44 | 45 | 46 | 47 | 48
FEN1 inh | -1% | -1% | 9% | 16%&8% | -9% | 1% | -8% | 6%
KAT2A inh | -7% | -6% | 0% | 0%&16% | 0% | 1% | -31% | 1%

49) CC(C)Cn1c(SCC(=O)c2ccc(Cl)s2)nnc1-c1ccco1
50) CC(=O)c1c(C)[nH]c(C(=O)Nc2cccc(S(=O)(=O)N(C)c3ccccc3)c2)c1C
51) Cn1c(C(=O)NCC2CCCO2)cc2c(=O)[nH]c3ccccc3c21 (configuration not stated)
52) CN(C)c1ccc(C(=O)C(O)c2ccc(C(C)(C)C)cc2)cc1 (configuration not stated)
53) C=CCc1cc(OC)ccc1OCCON1C(=O)CCC1=O
54) COc1ccc(-c2nc(N)n(C(=O)c3ccc(C)cc3)n2)cc1
55) C[C@]12c3[nH]c4ccccc4c3CCN1C(=O)C(CC(=O)NCCN1CCOCC1)C[C@@H]2C(=O)N1CCOCC1 (some centres not stated)
56) COc1ccc2c(c1)OC(c1ccccc1)(C(F)(F)F)NC2=O (configuration not stated)
assay / entry | 49 | 50 | 51 | 52 | 53 | 54 | 55 | 56
FEN1 inh | -19% | -10% | 12% | -14% | -4% | 1% | -8% | 8%
KAT2A inh | ? | -10% | -5% | -4% | -3% | 1% | 0% | 0%

57) COc1ccc(CCC(=O)NC2CCCc3ccccc32)cc1OC (configuration not stated)
58) CCOC(=O)Cc1ccc(NC(=O)N2CCc3c(sc4c3CCCC4)C2c2ccc(F)cc2)cc1 (configuration not stated)
59) Cc1c(C(=O)Nc2ccccc2F)sc2ncnc(N(C)C3CCCCC3)c12
60) NC1=NC(=O)C(Cc2cccc(Cl)c2)S1 (configuration not stated)
61) CCCNC(=O)[C@H](Cc1c[nH]c2ccccc12)NC(=O)c1ccccc1Cl
62) COc1ccc(CNC(=O)CCNS(=O)(=O)c2ccc(Cl)cc2)cc1
63) CC(C)(C)OC(=O)N1CCC(c2c(C(=O)N3CCN(C4CCCCC4)CC3)cnn2-c2ccccc2)CC1
64) Cc1c(Cl)cccc1-c1ccc(C(=O)Nc2ccc3oc(-c4cccnc4)nc3c2)o1
assay / entry | 57 | 58 | 59 | 60 | 61 | 62 | 63 | 64
FEN1 inh | 3% | -8% | -17% | 4% | -7% | -4% | -1% | -25%
KAT2A inh | -22% | -25% | -3% | 4% | 41%[activator] | -10% | 4% | -9%

65) CC(C)CC(NC(=O)COc1ccccc1)C(=O)O (configuration not stated)
66) CCCNS(=O)(=O)c1ccc(OCC(=O)NCCCOC)cc1
67) Cc1cc(=O)oc(C)c1C(=O)NCCC1=CCCCC1
68) O=C(Nc1c(C(=O)N2CCN(c3ccccc3F)CC2)oc2ccccc12)c1ccco1
69) CCCc1cc(=O)oc2cc(C)cc(OC(C)C(=O)NCCCN3CCOCC3)c12 (configuration not stated)
70) Cc1ccc(NC(=O)CCN2C(=O)CSC2=O)cc1
71) O=C1CSC(=Nc2ccccc2)N1Cc1ccccc1
72) CCC(C)(C)NC(=O)c1ccc2c(c1)OCCO2
assay / entry | 65 | 66 | 67 | 68 | 69 | 70 | 71 | 72
FEN1 inh | 2% | 7% | 6% | -5% | 16% | -4% | 1% | -17%
KAT2A inh | -3% | 2% | -10% | -11% | -3% | 2% | -10% | 2%

A second format for part of the listing above.
cpd | FEN1 inh | KAT2A inh | smiles
56 | 8% | 0% | COc1ccc2c(c1)OC(c1ccccc1)(C(F)(F)F)NC2=O (configuration not stated)
57 | 3% | -22% | COc1ccc(CCC(=O)NC2CCCc3ccccc32)cc1OC (configuration not stated)
58 | -8% | -25% | CCOC(=O)Cc1ccc(NC(=O)N2CCc3c(sc4c3CCCC4)C2c2ccc(F)cc2)cc1 (configuration not stated)
59 | -17% | -3% | Cc1c(C(=O)Nc2ccccc2F)sc2ncnc(N(C)C3CCCCC3)c12
60 | 4% | 4% | NC1=NC(=O)C(Cc2cccc(Cl)c2)S1 (configuration not stated)
61 | -7% | 41%[activator] | CCCNC(=O)[C@H](Cc1c[nH]c2ccccc12)NC(=O)c1ccccc1Cl

The listing continues.
73) COCCCN1CN(S(=O)(=O)c2ccc(Cl)cc2)c2nc3ccccc3nc21
74) CC(Cl)c1cc(-c2ncc(C(F)(F)F)cc2Cl)no1 (configuration not stated)
75) Cc1cc(OCC(=O)N2CCOCC2)ccc1NC(=O)C1CCCCC1
76) Cc1cc(Cl)ccc1OCC(=O)N1CCCN(C(=O)COc2ccc(Cl)cc2C)CC1
77) COc1ccccc1NC(=O)c1oc2ccccc2c1NC(=O)Cc1ccccc1
78) CCCCC(C(=O)NC(C)(C)C)N(Cc1ccco1)C(=O)c1snc(C(N)=O)c1N (configuration not stated)
79) CCOc1cc(-c2conc2N)cc(OCC)c1OCC
80) OC[C@H]1O[C@@H](Oc2ccc3cc(Br)ccc3c2)[C@H](O)[C@@H](O)[C@H]1O
assay / entry | 73 | 74 | 75 | 76 | 77 | 78 | 79 | 80
FEN1 inh | -21% | 9% | 10% | -22% | -1% | -10% | 5% | -5%
KAT2A inh | -3% | 1% | -9% | -13% | -4% | -5% | -11% | -6%

81) Cc1nc2nc(C)c(CCC(=O)Nc3ccc4c(c3)OCO4)c(C)n2n1
82) COc1ccccc1NCC(=O)NNC(C)C(=O)Nc1cccc(Cl)c1 (configuration not stated)
83) CC(Nc1cc(N2CCCC2)ccc1[N+](=O)[O-])c1ccccc1 (configuration not stated)
84) CCCCCC(=O)NNC(=O)c1ccc(F)cc1
85) O=C(/C=C/c1cccc([N+](=O)[O-])c1)Nc1ccccn1
86) CCOc1ccc(CNC(=O)CCn2c(=O)c3cccn3c3ccc(F)cc32)cc1
assay / entry | 81 | 82 | 83 | 84 | 85 | 86
FEN1 inh | 11% | -12% | -7% | 11% | -5% | -4%
KAT2A inh | 0% | -6% | 1% | 2% | -5% | -9%

Compound activity from PubChem BioAssay.

This is a subset; most or all hits stand in other tables.
